Source: PubChem (National Center for Advancing Translational Sciences (NCATS))
TRPML1 ag = human mucolipin-1 channel agonism | 0.12% of 410,000 active | AID 624414 | Q9GZU1 | activation, % (concentration not given with the values) | TRPML1-expressing cells, Ca2+ dye fluorescence, FDSS; host cell line not named in the record; reference of the full effect not given here; in the data active = activation above about 50%; inconclusive = about 30% to 50%; inactive = below about 30%; note: 0% is about no effect; the text of the record puts the active cut at 80%
Target sequence (Q9GZU1 whole entry, looked up): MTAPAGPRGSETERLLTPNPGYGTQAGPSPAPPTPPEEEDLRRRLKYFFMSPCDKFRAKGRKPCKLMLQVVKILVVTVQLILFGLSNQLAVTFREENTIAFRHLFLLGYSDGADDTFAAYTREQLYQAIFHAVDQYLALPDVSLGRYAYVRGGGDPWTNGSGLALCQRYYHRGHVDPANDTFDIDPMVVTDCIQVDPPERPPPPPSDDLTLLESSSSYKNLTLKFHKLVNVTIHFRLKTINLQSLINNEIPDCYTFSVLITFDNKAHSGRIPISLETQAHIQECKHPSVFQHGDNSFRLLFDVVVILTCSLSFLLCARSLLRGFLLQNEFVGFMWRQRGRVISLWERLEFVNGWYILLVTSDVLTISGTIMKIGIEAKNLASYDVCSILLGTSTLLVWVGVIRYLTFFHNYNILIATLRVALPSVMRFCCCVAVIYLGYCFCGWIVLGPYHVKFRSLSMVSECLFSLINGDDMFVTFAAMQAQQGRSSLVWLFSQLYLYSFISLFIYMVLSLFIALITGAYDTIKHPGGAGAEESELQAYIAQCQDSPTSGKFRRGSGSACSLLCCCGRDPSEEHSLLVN
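Tet-induced TRPML1-DL cells, 1,500 per well, cultured overnight, were loaded with a no-wash Ca2+ dye for 45–90 min. Calcium fluorescence was recorded on the FDSS for 110 s after compound addition, before the EC80 agonist (4 uM 54-4) was added.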
TRPML1 blocker = human mucolipin-1 channel inhibition; Q9GZU1; TRPML1-inducible cells, Ca2+ dye fluorescence, FDSS; stronger effect = lower value; inhibition of EC80 agonist-evoked calcium signal; activity change, negative = inhibition, % (no concentration beside the values); 0.02% of 390,000 active; in the data active means activity change below about -50%; inconclusive means about -30% to -50%; inactive means above about -30%;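 note: stimulus is agonist 54-4 at its EC80 concentration; % is set by controls: 0 for no effect and ±100 for the full control effect; compound concentration not given in the record; the text of the record puts the active cut at -80%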
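Tet-induced TRPML1-DL cells loaded with Ca8 no-wash calcium dye were read kinetically on FDSS. Compound addition was followed by EC80 agonist 54-4 (4 uM final); inhibition was read over 110 s.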
ClpP mod = qHTS Assay for Activators of ClpP; ATP-dependent Clp protease proteolytic subunit (Bacillus subtilis (strain 168)), P80244; purified B. subtilis ClpP, FRET peptide cleavage, 20 min; 1.9% of 340,000 active; AID 651965, 2013; Potency, µM (doses to about 57.5 µM), for inactives: at the highest dose activity change, negative = active; active = well fitted falling curve with a large enough effect; inconclusive = small, poorly fitted or top-dose-only effect; inactive = no such curve, though single readings can be large or run the other way; note: potency is the fitted concentration of half-maximal effect; the source files actives as falling curves though it sought activators and does not explain the sign; nearly all actives have a fitted effect of over 65% in size; many hits overshoot -100%
Target sequence (P80244 whole entry, looked up): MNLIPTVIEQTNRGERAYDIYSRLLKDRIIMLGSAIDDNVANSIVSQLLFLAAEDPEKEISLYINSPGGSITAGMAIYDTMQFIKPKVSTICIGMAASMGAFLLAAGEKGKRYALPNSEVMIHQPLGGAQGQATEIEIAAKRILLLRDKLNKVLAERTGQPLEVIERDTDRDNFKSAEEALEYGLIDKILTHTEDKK
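Purified B. subtilis ClpP, 10 microg/mL final in Tris/HCl pH8 with KCl, BSA, glycerol and Tween-20, cleaved an Abz/nitrotyrosine-quenched decapeptide. Fluorescence (ex 320, em 430) was read at 0 and 20 min at room temperature. Delta was normalized to 5.8 microM ADEP and DMSO/no-enzyme controls.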
PINK1 expr mod = PINK1 expression modulation; PINK1 immunofluorescence, high-content cytometry, 24 h; Potency, µM (titrated, usually from 76.6 µM), without a hit: at the top dose activation (PINK1 increase), most hits filed as activators; 0.2% of 410,000 active; active = well fitted activation curve with a large enough effect; inconclusive = small, poorly fitted or top-dose-only effect; inactive = flat fitted curve, though single readings scatter; cell line not stated here;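 note: potency is the fitted concentration of half-maximal effect; % of control where 0% means no effect; nearly all actives have a fitted effect of over 65% in size; a mitochondrial uncoupler was the plate control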
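Cells are seeded, rested 12 hours, then given compound at five concentrations or DMSO for 24 hours. After fixation, blocking and antibody staining, PINK1 amount and mitochondrial localization are scored; CCCP serves as control.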
Sfp PPTase inh = blocks B. subtilis Sfp PPTase activity. Potency, µM, without a hit: max response, negative = inhibition, usual class: inhibitors. Q9F4F7. 3.5% of 310,000 active. Biochemical Sfp PPTase activity, qHTS; active = well fitted inhibition curve with a large enough effect; inconclusive = small, poorly fitted or top-dose-only effect, or another doubt; inactive = no such curve, though single readings can be large or run the other way;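 note: the enzyme is Sfp with the accession as filed and its product quenches rhodamine fluorescence; potency is the fitted concentration of half-maximal effect; 0% = enzyme reaction without inhibitor and -100% = no enzyme wells; top concentration of the series not given in the record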
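With Hepes-Na pH 7.6 buffer containing 10 mM MgCl2, Sfp (15 nM) modified BHQ-2-YbbR (12.5 uM) using rhodamine-CoA (5 uM). Two reads 30 minutes apart at 525/598 nm yielded each well's rate.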
Menin MLL FP FL = menin-MLL binding inhibition, fluorescein peptide; Fluorescence polarization, fluorescein-MLL peptide displacement from menin; FP activity change, % at 61.4 µM; 290,000 tested, under 10 active; inconclusive = falling polarisation curve, or a change in total fluorescence; inactive = total fluorescence flat and polarisation flat or rising; no compound was filed as active; the % refers to the polarisation; negative = inhibition;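 note: % of control where 0% means no effect; inhibitors lower the polarisation; unlabelled MLL peptide was the positive control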
TRPV1 PAM = enhances activation of the human vanilloid receptor TRPV1 | Q8NER1 | TRPV1-expressing cells, Fluo-8 calcium influx, capsaicin EC20 potentiation; host cell line not named in the record; control for the full effect not named in the record | potentiation, % at 8.33 µM | 0.02% of 320,000 active | AID 540277; active means potentiation above 80%; inconclusive means 30% to 80%; inactive means below 30%; note: 0% is about no effect
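TRPV1-expressing cells were cultured overnight at 35.5C and loaded with Fluo-8 calcium dye for 40 to 90 min at room temperature. After a 10 s baseline, compound was added and calcium influx was read kinetically for 3 min (ex 480/em 520 nm).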
Numbers without * were called inactive; ? = inconclusive; · = no result given; & = joins results of further samples; [ ] = dose if it differs, or a comment.

SMILES	TRPML1 ag	TRPML1 blocker	ClpP mod	PINK1 expr mod	Sfp PPTase inh	Menin MLL FP FL	TRPV1 PAM
CCCc1nc2c(s1)CCc1onc(-c3ccc(Br)cc3)c1-2	0.8	11	-3.9%	6.2%	·	·	·
CCN1CCCC1CNC(=O)Cn1cnc2ccc(S(=O)(=O)N3CCC(C)CC3)cc2c1=O (configuration not stated)	0.0	9	-1.0%	-0.7%	9%	0.8	-15
COc1ccc(-n2c(C)c(C(C)=O)c3cc(O)ccc32)cc1	0.1	37	-1.2%	-0.3%	19%	1.1	-17
O=C1CC(Sc2ccc(Cl)cc2)C(=O)N1Cc1ccncc1 (configuration not stated)	4.0	4	0.1%	3.5%	7%	-0.8	-15
CCOc1ccc2nc(N(CCN(C)C)C(=O)c3cc4ccccc4cc3OC)sc2c1	1.3	-3	-1.4%	4.9%	?	2.6	-5
COc1ccc(C(=O)/C=C2/C(=O)Nc3ccccc32)cc1	2.0	-19	-2.0%	-3.3%	-1%	-1.1	24
CC(OC(=O)c1nn(C)c(=O)c2ccccc12)C(=O)NC1CCCCC1C (configuration not stated)	0.1	4	-1.2%	0.0%	·	·	15
CCCn1nnnc1NCc1ccc(OC)cc1	-0.7	10	0.1%	-1.2%	10%	-3.6	9
Cc1ccc(NC(=S)NC(NC(=O)c2ccco2)C(Cl)(Cl)Cl)cc1 (configuration not stated)	-0.5	-11	-1.7%	2.9%	6%	3.8	-1
CCc1ccccc1NC(=O)CNC(=O)CCc1nc2sc3c(c2c(=O)[nH]1)CCCC3	0.4	-13	9.3%	10%	·	·	14
O=C1COc2ccc(C(=O)CSc3ccccc3C(=O)O)cc2N1	0.6	80	0.3%	0.4%	-13%	4.0	-12
COC(=O)C1=C(N)OC2=C(C(=O)CC(C)(C)C2)C1c1ccoc1 (configuration not stated)	-0.6	14	-1.7%	-2.4%	18%	2.7	25
Cn1c(/C=C/c2ccccc2)nc2ccccc21	2.4	-2	4.1%	1.4%	10%	-0.2	-14
C=CCN=C1S/C(=C\c2ccc(N(C)C)cc2)C(=O)N1CC=C	1.4	15	·	7.2%	?	?	2
COc1ccc(Cl)cc1S(=O)(=O)N1CCN(C(=O)c2cc(-c3ccc(Br)cc3)n[nH]2)CC1	1.8	17	-0.6%	0.8%	·	·	·
COc1ccc(C)cc1NC(=O)c1cc2c(=O)n(Cc3cccnc3)ccc2nc1C	0.7	-6	-6.6%	0.4%	·	·	·
N#CC(C#N)=Cc1ccc(NC(=O)c2ccc(Br)cc2)cc1	1.6	49	·	0.4%	?	3.1	-13
COc1ccc(/C=C/C(=O)NC(=S)NNC(=O)c2ccco2)cc1OC	1.1	6	0.2%	7.6%	26%	-0.1	6
CO/N=C\CC(=O)Nc1ccc(Cl)cc1Cl	-0.5	3	·	0.7%	-7%	-1.6	?
CCN1C(=NCc2cc(OC)c(OC)c(OC)c2)N[C@@H](c2ccccc2)[C@H](C(=O)OC)[C@H]1C	·	·	·	·	0%&-1%	-4.5&-2.7	-21&-15
C(=N\c1nccs1)/c1c[nH]c2ccccc12	-0.8	1	1.8%	-1.6%	45µM*	1.1	17
Cc1ccccc1CSCCNC(=O)CSCc1ccc([N+](=O)[O-])cc1	-0.2	4	-11%	2.3%	0%	-0.4	-21
Nc1c(C(=O)c2ccccc2)oc2ccc([N+](=O)[O-])cc12	2.7	-8	-2.1%	1.4%	12%	0.8	12
O=C(COC(=O)c1c(Cl)cccc1Cl)Nc1cccc(S(=O)(=O)NC2=NCCCCC2)c1	-0.7	-14	-1.0%	-0.3%	·	·	5
c1ccc(-c2ccccc2-n2cnnn2)cc1	-0.8	6	-0.9%	7.3%[38.3 µM]	14%	-1.1	7
O=[N+]([O-])c1cccc(N/N=C/c2cccc(O)c2O)c1	-0.6	9	·	2.6%	-22%	5.5	11
O=C(O)c1ccccc1N/N=C/c1c(Sc2nnnn2-c2ccccc2)nc2ccccn2c1=O	11	-9	0.3%	?	6%	?	7
N#C/C=C1\Sc2ccccc2C(=O)N1CC(=O)N1CCN(S(=O)(=O)c2ccccc2)CC1	-0.7	-1	-4.0%	-21%[38.3 µM]	-2%	2.3	0
O=C(Cn1c2[n+](c3ccccc31)CC(O)CS2)c1ccccc1 (configuration not stated)	0.0	9	3.2µM*	3.1%	5%	2.6	-3
CCN(Cc1ccccc1)C(=O)c1cccc(S(=O)(=O)N2CCN(c3ccccc3)CC2)c1	-0.5	7	-0.3%	-0.4%	·	·	19
Cc1ccc(S(=O)(=O)NCc2ccccc2)cc1	0.4&-1.1	0	0.3%&-0.8%	1.5%&0.3%	24%&-4%	1.6&-4.2	-7
CC(C(=O)NC(N)=O)N1C(=O)NC(c2ccccc2)(c2ccccc2)C1=O (configuration not stated)	0.1	-11	·	0.7%	9%	-1.3	2
COc1cc2nc(CN3CCN(c4ncc(C(F)(F)F)cc4Cl)CC3)[nH]c(=O)c2cc1OC	·	·	·	·	3%	3.6	-2
O=C(C(Cl)Cl)N1CCN(c2ccccn2)CC1	0.2	15	-5.9%	-0.6%	20%	-0.9	?
COc1ccccc1C(=O)NNC1=NS(=O)(=O)c2ccccc21	0.5	-1	0.3%	1.9%	6%	-1.0	?
COC(=O)c1cc(-c2ccc(OC)cc2)n[nH]1	1.2	20	·	2.1%	-1%	2.0	1
O=C1N(c2ccc(Cl)cc2)C(c2ccccc2)N2CCCN12 (configuration not stated)	0.5	-15	0.5%	1.7%	-8%	5.2	8
COc1ccc(CC(=O)OCC(=O)Nc2ccc3c(c2)OCO3)cc1OC	-0.9	-3	·	-0.2%	2%	3.4	-10
O=C(CN1C(=O)C2(SCC(=O)N2c2cccc(Cl)c2)c2ccccc21)NCCc1ccccc1 (configuration not stated)	3.6	-12	-2.4%	-4.9%	·	·	·
COc1ccc(OC)c(C(O)c2ncc(-c3cccc(C(F)(F)F)c3)[nH]2)c1 (configuration not stated)	-0.6	·	2.4%	3.0%	·	·	·
CCCCOC(=O)Nc1cc(C(=O)OC)ccc1C(=O)OC	2.2	6	19%	·	-16%	-0.8	-6
Cc1ccc(-c2nnn(CC(=O)N3CCN(c4nc5ccccc5s4)CC3)n2)cc1	-0.1	-10	-1.5%	0.6%	7%	8.4	2
COc1cccc(N2CC(C(=O)Nc3c(C)cccc3C)CC2=O)c1 (configuration not stated)	-1.2	3	1.8%	-0.9%	18%	5.7	-2
O=C(O)c1ccc(OCc2ccc(C(=O)O)o2)cc1	0.0	28	·	0.7%	11%	-2.8	11
NC(=O)C1(C(N)=O)OC1c1ccccc1 (configuration not stated)	-0.7	-12	1.5%	0.0%	22%	2.6	-3
COc1ccc(-c2cccc(CCC(=O)N3CCN(c4cc(C)ccc4C)CC3)c2)cc1	0.8	56	-6.0%	0.1%	·	·	·
Cn1c(=O)c(C(=O)NCCc2ccccc2)c(O)c2ccccc21	3.1	7	·	4.1%	-8%	0.7	10
S=P(N1CC1)(N1CC1)N1CC1	-0.9	7	-1.2%	-0.9%	14%&-69%	2.7&-6.1	-2
CCC(C)[C@H](NC(=O)NCc1ccc(F)cc1)C(=O)O (some centres not stated)	0.8	11	-0.2%	2.1%	10%	0.8	11
COc1cccc(OCC(=O)NC2CCS(=O)(=O)C2)c1 (configuration not stated)	0.0	8	0.9%	-1.0%	·	·	-3
COCCN1Cc2cccc(C(=O)Nc3cccc(-c4nc5ccccc5[nH]4)c3)c2C1=O	2.8	9	·	6.4%	6%	2.1	-11
CSCCC(NC(=O)c1ccccc1Cl)C(=O)N1CCN(C(c2ccccc2)c2ccccc2)CC1 (configuration not stated)	0.3	-6	-0.2%	4.0%	11%	4.2	-22
Cc1cc(C(=O)NNC(=O)CCC2CCCCC2)c(C)o1	1.4	3	0.2%	1.8%	20%	0.5	26
COc1ccccc1NC(=O)COC(=O)COc1cccc2c1OC(C)(C)C2	1.7	1	·	-0.1%	·	·	1
CCOc1c(Br)cc(C(=O)Nc2cccc(S(=O)(=O)N3CCOCC3)c2)cc1OC	0.1	-17	1.1%	1.4%	·	·	·
CCc1sc(C(=O)N2CCc3ccccc32)cc1C	-0.2	-3	-2.8%	0.2%	-4%	-1.9	-11
Cc1ccc2c(c1)N(CC(=O)N1CCCCC1C)C(=O)CO2 (configuration not stated)	0.9	42	·	-0.5%	20%	·	3
O=C1CCC(=O)N1c1ccc(NCCc2cccc(F)c2)c([N+](=O)[O-])c1	0.9	46	·	0.7%	10%	-10	9
CC1(C)CC(=O)C2=C(C1)N(c1cccc(O)c1)C1=C(C2)C(=O)CC(C)(C)C1	-0.1	1	-3.1%	1.4%	10µM*	?	24
CC(C)C(=O)N1CCC(n2nccc2NC(=O)CCc2ccccc2)CC1	0.4	-8	-3.1%	-0.7%	4%	0.3	-6
Next entries follow:
SMILES	TRPML1 ag	TRPML1 blocker	ClpP mod	PINK1 expr mod	Sfp PPTase inh	Menin MLL FP FL	TRPV1 PAM
Nc1[nH]nc2ncc3cc4ccccc4nc3c12	1.0	1	·	-0.8%	35µM*	?	1
CN(C1=C(N2CCOCC2)C(=O)c2ccccc2C1=O)c1ccccc1	0.8	2	0.6%	-1.8%	-7%	0.1	8
O=S(=O)(/N=C/c1c(O)ccc2ccccc12)c1cccs1	·	·	·	·	-26%	4.2	10
CN(C)c1ncnc2sc(-c3ccccc3)cc12	-0.3	9	3.4%	-0.9%	0%	·	-9
Nc1cc(C(F)(F)F)ccc1N1CCOCC1	0.5	-6	-22%	0.7%	17%	1.8	2
O=C1CCCC(=O)N1c1ccc(N2CCN(c3ccc([N+](=O)[O-])cc3)CC2)c([N+](=O)[O-])c1	·	·	·	·	0%	2.5	-5

Of the compounds above, three have an aryl thioether with sulfur outside any ring.
SMILES	TRPML1 ag	TRPML1 blocker	ClpP mod	PINK1 expr mod	Sfp PPTase inh	Menin MLL FP FL	TRPV1 PAM
O=C1CC(Sc2ccc(Cl)cc2)C(=O)N1Cc1ccncc1 (configuration not stated)	4.0	4	0.1%	3.5%	7%	-0.8	-15
O=C1COc2ccc(C(=O)CSc3ccccc3C(=O)O)cc2N1	0.6	80	0.3%	0.4%	-13%	4.0	-12
O=C(O)c1ccccc1N/N=C/c1c(Sc2nnnn2-c2ccccc2)nc2ccccn2c1=O	11	-9	0.3%	?	6%	?	7
